Ecoli rRNA inh: reduced GFP signal of wild-type E. coli, primary screen, bacterial rRNA inhibitor project, GFP/RFP fluorescence, OD600, single point; E. coli WT GFP vs humanized-ribosome RFP mutants, 24 h; hits give low values; DMSO median 0, no signal -100; GFP signal change (wild-type ribosome), % (no concentration beside the values); 350,000 tested, 1.6% active; AID 720706, 2013;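 active = significant combined selectivity score with lowered wild-type GFP, culture density cut under 30%, mutant RFP and density less affected; inactive = any of these conditions unmet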; note: one replicate is shown; some compounds called inactive have numbers as strong as hits
AF4-AF9 inh: inhibitors of AF4 peptide binding to AF9, primary screen, biochemical, AlphaScreen, biotin-AF4 peptide, FLAG-AF9, single point | AID 651704, 2012 | inhibition, % at 10 µM | 350,000 tested, 0.47% active;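 active = every replicate reaching a set inhibition limit, whatever the replicate mean, cut at about 25% in these data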;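 note: 0% = plate neutral control median and 100% = total signal loss; the record names both 10 and 1 µM as test concentration; the first replicate is given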
Target sequence (P42568 whole entry, looked up): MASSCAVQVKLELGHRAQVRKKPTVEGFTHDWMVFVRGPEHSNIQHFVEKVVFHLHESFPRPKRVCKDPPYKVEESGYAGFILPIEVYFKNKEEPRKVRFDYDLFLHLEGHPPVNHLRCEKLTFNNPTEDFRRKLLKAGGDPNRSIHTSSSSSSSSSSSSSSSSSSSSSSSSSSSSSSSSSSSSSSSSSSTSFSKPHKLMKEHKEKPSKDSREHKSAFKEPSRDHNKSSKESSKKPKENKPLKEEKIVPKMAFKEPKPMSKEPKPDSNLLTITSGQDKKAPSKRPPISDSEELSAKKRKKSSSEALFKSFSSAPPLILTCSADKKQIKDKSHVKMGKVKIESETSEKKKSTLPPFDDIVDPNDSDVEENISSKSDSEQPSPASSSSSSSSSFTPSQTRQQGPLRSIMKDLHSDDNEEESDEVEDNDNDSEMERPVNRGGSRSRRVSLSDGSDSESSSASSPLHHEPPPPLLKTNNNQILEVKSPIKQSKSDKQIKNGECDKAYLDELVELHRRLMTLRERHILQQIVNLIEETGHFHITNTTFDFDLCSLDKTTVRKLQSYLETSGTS
Ecoli rRNA inh OD600: further read-out of Ecoli rRNA inh, marked with its call; OD600 change, %; measured here: OD600 growth;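 optical density of the mix in the first replicate; 0 = DMSO median and -100 = no signal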
Ecoli rRNA inh RFP: also measured in Ecoli rRNA inh; calls as there; RFP signal change, %; measured here: RFP humanized mutant strains;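 first replicate; 0 = DMSO median and -100 = no signal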
Numbers without * were called inactive. Only part of the results is shown; the hit share may differ from the screen's.

SMILES	Ecoli rRNA inh	Ecoli rRNA inh OD600	Ecoli rRNA inh RFP	AF4-AF9 inh
CC(=O)N1CCCCN2[C@H](CO)[C@H](c3ccc(-c4cccc(C(=O)N(C)C)c4)cc3)[C@H]2C1	4.0	23.8	-1.3	-1.3
O=C(Nc1ccccc1)Nc1ccccc1	4.2	14.2	5.1	-1.5
COCC(=O)N1CCCCN2[C@H](C1)[C@H](c1ccc(-c3cccc(C)c3)cc1)[C@@H]2CO	-2.3	10.1	5.8	13.1
COc1ccc(S(=O)(=O)Nc2ccc3c(c2)CC(=O)N([C@H](C)CO)C[C@H](C)[C@H](CN(C)Cc2ccc(C(=O)Nc4ccccc4N)cc2)O3)cc1	-0.4	-6.3	2.0	-0.9
CCC(=O)N1CC2(C1)[C@H](c1ccccc1)[C@H](CO)N2Cc1ccccc1F	-1.5	-6.9	-0.2	0.7
COc1ccc(NC(=S)N2CCN(c3ccc4c(c3)C3CCN(C(=O)OCc5ccccc5)C4C3)CC2)c(OC)c1 (configuration not stated)	-1.5	3.1	5.3	1.9
O=C(N[C@@H]1CC[C@@H](CCNC(=O)c2ccccc2F)O[C@@H]1CO)c1ccc2c(c1)OCO2	1.2	5.3	-0.1	2.2
CCc1csc(N2[C@@H](C#N)[C@@H](c3ccc(C4=CCCC4)cc3)[C@@H]2CO)n1	-6.4	-27.1	16.4	-0.3
Cc1ccc(S(=O)(=O)Nc2ccc3c(c2)CC(=O)N([C@H](C)CO)C[C@H](C)[C@H](CN(C)C(=O)Nc2ccc(C(F)(F)F)cc2)O3)cc1	1.7	0.4	1.9	-1.1
COc1ccc(NC(=O)Nc2ccc3c(c2)CC(=O)N([C@H](C)CO)C[C@H](C)[C@H](CN(C)S(=O)(=O)c2ccccc2)O3)cc1	0.2	-2.9	0.4	5.6
C[C@H]1CN([C@@H](C)CO)S(=O)(=O)c2ccc(-c3cccnc3)cc2O[C@H]1CN(C)Cc1ccccn1	-0.5	-5.1	1.9	-2.7
COC(=O)[C@@]12C[C@@H](CC(=O)NCc3ccc(C)o3)C(=O)N(Cc3ccco3)C1=CCC(C)(C)C2	-1.9	12.6	2.0	-1.9
COc1ccc(NC(=O)Nc2ccc3c(c2)C(=O)N([C@H](C)CO)C[C@H](C)[C@H](CN(C)Cc2ccc(C(F)(F)F)cc2)O3)cc1	3.1	-0.9	5.4	2.8
CCC(=O)N[C@H]1CC[C@H](CC(=O)NCC2CCCCC2)O[C@H]1CO	2.3	6.7	-4.6	-1.0
C[C@]12Cc3ccccc3C1CC1=N[C@@H](C3CCCCC3)O[C@@]13C[C@@H]2C(=O)N3C1CCN(Cc2ccccc2)CC1 (some centres not stated)	1.3	-26.9	8.0	13.2
CCC(=O)N(C)C[C@H]1Oc2cc(-c3cccc(OC)c3)ccc2S(=O)(=O)N([C@H](C)CO)C[C@@H]1C	-7.7	-24.1	1.5	-3.2
C[C@@H]1CN([C@H](C)CO)S(=O)(=O)c2ccc(C#CC3(O)CCCC3)cc2O[C@H]1CN(C)C(=O)c1ccccc1	-5.3	-21.2	-4.2	2.9
CC(C)C#Cc1ccc([C@H]2[C@H]3CN(C(=O)c4ccc(F)cc4)CCCCN3[C@H]2CO)cc1	-37.2	-65.5	11.3	0.0
CCS(=O)(=O)Nc1ccc2c(c1)C(=O)N(C)[C@H]1CC[C@@H](CC(=O)N3CCN(C)CC3)O[C@@H]1CO2	3.4	4.7	-1.6	-2.8
O=C(C[C@H]1CC[C@H](NC(=O)CCN2CCCCC2)[C@@H](CO)O1)Nc1nccs1	-1.3	-2.5	-0.7	-8.1
COc1ccc(NC(=O)N[C@H]2CC[C@H](CCn3cc(-c4ccccc4)nn3)O[C@@H]2CO)cc1	-1.3	-7.1	-1.2	3.8
CC=Cc1ccc2n(c1=O)C[C@H]1[C@H](CO)[C@@H](C(=O)N[C@H](C)c3ccccc3)[C@@H]2N1CC1CC1 (mixture of isomers)	0.0	-1.1	2.8	-0.6
O=C(CSc1nnc(-c2ccccc2)c2ccccc12)NCCN1C(=O)CSC1=O	-4.1	-6.1	1.4	4.5
CNC[C@H]1[C@@H](c2ccccc2)[C@@H](CO)N1C(=O)Nc1cccc(OC)c1	4.1	0.7	0.8	-0.6
CO[C@H]1CN(C)C(=O)c2ccc(NC(=O)Nc3ccc(Cl)cc3)cc2OC[C@H](C)N(C(=O)Nc2c(C)noc2C)C[C@@H]1C	-1.9	-7.2	1.8	0.9
COc1cccc(NC(=O)Nc2ccc3c(c2)OC[C@H](C)NC[C@@H](C)[C@H](OC)CN(C)C3=O)c1	-0.8	-0.2	0.8	7.2
COc1ccc(S(=O)(=O)Nc2ccc3c(c2)C(=O)N([C@H](C)CO)C[C@H](C)[C@@H](CN(C)S(=O)(=O)c2ccc(C)cc2)OCCCC[C@H](C)O3)cc1	-4.0	-3.5	1.2	-0.2
CC1(C(=O)Nc2cccc3c2CCCC3)CCN1C(=O)c1cccc(F)c1 (configuration not stated)	-4.2	-7.8	-4.0	-4.7
O=C(N[C@@H]1CC[C@@H](CCNS(=O)(=O)c2ccc(F)cc2)O[C@H]1CO)c1cccc(F)c1	-3.9	3.6	-4.0	-2.6
C[C@@H]1CCCCO[C@@H](CN(C)C)[C@H](C)CN([C@H](C)CO)C(=O)c2cc(NC(=O)Nc3ccc(F)cc3)ccc2O1	1.1	-5.8	0.1	2.8
CCCCNC(=O)c1nc(-c2cc3ccccc3[nH]2)oc1-c1ccccc1	-9.4	-21.0	3.7	0.7
COc1ccc(S(=O)(=O)Nc2ccc3c(c2)CC(=O)N([C@@H](C)CO)C[C@H](C)[C@@H](CN(C)Cc2ccccc2)O3)cc1	-50.4	-75.2	-8.3	0.6
C[C@@H]1CN([C@@H](C)CO)C(=O)Cc2cc(NS(=O)(=O)c3cn(C)cn3)ccc2O[C@H]1CN(C)CC1CC1	3.6	3.1	0.9	-2.5
COc1ccc2c3c(n(C)c2c1)[C@@H](CO)N(C(=O)Cc1ccccn1)CC31CN(CC2CC2)C1	-0.4	-0.8	-1.1	12.5
COc1ccc2c3c(n(C)c2c1)[C@H](CO)N(CC1CC1)CC31CCN(C(=O)c2ccc(F)cc2)CC1	-0.1	-10.8	2.1	1.4
C[C@@H]1CN([C@H](C)CO)C(=O)c2cccc(NC(=O)Nc3ccccc3)c2O[C@H]1CN(C)Cc1ccncc1	1.2	-3.1	-0.4	0.1
C[C@@H]1CN([C@@H](C)CO)C(=O)c2cccc(NC(=O)Nc3cccc4ccccc34)c2O[C@H]1CN(C)C(=O)Nc1ccc2c(c1)OCO2	-7.2	-3.8	1.9	15.3
Cc1ccc(S(=O)(=O)Nc2ccc3c(c2)CC(=O)N([C@@H](C)CO)C[C@@H](C)[C@H](CN(C)C(=O)Nc2ccc(C(F)(F)F)cc2)O3)cc1	0.6	-3.6	-1.3	2.2
COCC(=O)N1C[C@@H]2[C@H](c3ccccc31)[C@H](CO)N2C(=O)C1CCOCC1	1.0	2.0	-1.7	0.7
CCOc1ccc(Br)cc1S(=O)(=O)NCC(c1ccc(OC)cc1)N1CCOCC1 (configuration not stated)	-11.2	-15.8	1.3	2.1
COc1ccc(S(=O)(=O)Nc2ccc3c(c2)C(=O)N([C@H](C)CO)C[C@H](C)[C@@H](CN(C)C(=O)Nc2ccc(F)cc2)OCCCC[C@@H](C)O3)cc1	-3.1	0.1	1.1	-1.4
C[C@H]1CN([C@@H](C)CO)C(=O)c2ccccc2-c2ccccc2CO[C@H]1CN(C)S(C)(=O)=O	1.3	4.6	-3.6	-3.3
COc1ccc(-c2cnc3c(c2)C(=O)N([C@@H](C)CO)C[C@H](C)[C@@H](CN(C)C(=O)CN(C)C)O3)cc1	2.3	0.6	-3.3	-1.6
C[C@@H]1CN([C@@H](C)CO)C(=O)c2cc(NC(=O)Nc3ccccc3)ccc2O[C@@H]1CN(C)Cc1ccc(Oc2ccccc2)cc1	-4.1	-33.0	16.4	-0.8
C/C=C/c1ccc([C@H]2[C@@H](CO)N3C(=O)CN(S(=O)(=O)c4ccccc4)C[C@H]23)cc1	-0.5	-2.5	1.0	2.2
C[C@@H]1CN([C@@H](C)CO)C(=O)c2cccc(NC(=O)Nc3ccccc3)c2O[C@@H]1CN(C)C(=O)Nc1ccc2c(c1)OCO2	2.2	3.0	1.6	-0.9
CCCNC(=O)C[C@@H]1CC[C@H]2[C@@H](COC[C@H](O)CN2C(=O)Nc2c(C)noc2C)O1	-1.2	12.4	-2.8	0.8
COc1ccccc1NC(=O)N[C@H]1C=C[C@H](CC(=O)N[C@@H](C)c2ccccc2)O[C@@H]1CO	0.4	-2.6	1.8	-1.8
O=C(CCN1CCCCC1)N[C@H]1C=C[C@H](CC(=O)N2CCC(Cc3ccccc3)CC2)O[C@H]1CO	-8.7	-6.5	4.1	1.5
Cc1ccccc1-c1ccc([C@H]2[C@H]3CN(C(=O)c4cccnc4)CCCCN3[C@H]2CO)cc1	-0.2	-2.7	-1.1	11.2
CCc1nc2c(OCc3ccc(C(F)(F)F)cc3)cccn2c1N(C)C(=O)c1ccco1	-6.6	-43.2	-7.5	3.2
C[C@@H]1CN([C@H](C)CO)C(=O)c2cccc(NC(=O)C3CCCCC3)c2O[C@@H]1CN(C)CC1CCCCC1	3.9	4.4	-2.2	-1.3
COCC#Cc1ccc2c(c1)O[C@H](CN(C)C(=O)Nc1ccc(OC)cc1)[C@@H](C)CN([C@@H](C)CO)S2(=O)=O	-5.4	-7.1	-0.3	-0.5
C[C@H](CO)N1C[C@H](C)[C@H](CN(C)Cc2ccc(-c3ccccc3)cc2)Oc2ncc(C#CCN(C)C)cc2C1=O	0.0	3.3	0.9	17.9
N#C[C@@H]1[C@H](c2ccccc2C2=CCCCC2)[C@@H](CO)N1C(=O)NC1CCCCC1	-2.0	12.8	2.3	-1.7
O=C(C[C@@H]1CC[C@@H](NC(=O)Nc2ccccc2F)[C@H](CO)O1)NCc1ccc(Cl)cc1	0.3	0.6	-1.5	-0.3
COc1ccccc1-c1cnc2c(c1)C(=O)N([C@H](C)CO)C[C@H](C)[C@H](CN(C)Cc1cccnc1)O2	0.6	0.9	-0.5	-3.4
O=C(Nc1ccc(Cl)c(Cl)c1)N[C@H]1CC[C@@H](CCNC(=O)c2ccc(F)cc2)O[C@H]1CO	-58.5	-79.7	-13.6	-0.6
Cc1ccc(S(=O)(=O)Nc2ccc3c(c2)C(=O)N([C@@H](C)CO)C[C@H](C)[C@H](CN(C)CC2CCCCC2)OCCCC[C@@H](C)O3)cc1	3.9	-21.0	21.2	3.6
NC(CO)c1csc(Nc2ccc(C(F)(F)F)cn2)n1 (configuration not stated)	4.2	3.1	6.8	2.0

Reformatted with two lines to a compound: part of the list above
Order of results: Ecoli rRNA inh | Ecoli rRNA inh OD600 | Ecoli rRNA inh RFP | AF4-AF9 inh
COc1ccc(-c2cnc3c(c2)C(=O)N([C@@H](C)CO)C[C@H](C)[C@@H](CN(C)C(=O)CN(C)C)O3)cc1
    2.3 | 0.6 | -3.3 | -1.6
C[C@@H]1CN([C@@H](C)CO)C(=O)c2cc(NC(=O)Nc3ccccc3)ccc2O[C@@H]1CN(C)Cc1ccc(Oc2ccccc2)cc1
    -4.1 | -33.0 | 16.4 | -0.8

Carrying on.
SMILES	Ecoli rRNA inh	Ecoli rRNA inh OD600	Ecoli rRNA inh RFP	AF4-AF9 inh
CCCNC(=O)N1CC2(CN(C)C2)c2c([nH]c3cc(OC)ccc23)[C@@H]1CO	1.5	3.1	2.1	1.7
CCC(=O)N(C)C[C@H]1Oc2ncc(-c3ccc(C(=O)N(C)C)cc3)cc2C(=O)N([C@H](C)CO)C[C@H]1C	3.0	11.0	1.1	-2.5
COc1ccccc1C(=O)N1C[C@H]2[C@@H](c3ccccc31)[C@@H](CO)N2C(=O)C1CCCCC1	-1.8	-3.7	1.2	1.1
COCC(=O)N1CC[C@@H]2[C@@H](CO)Nc3ccc(C#Cc4ccc(F)cc4)cc3[C@@H]21	6.9	3.6	2.1	-4.6
COc1cccc(-c2ccc([C@H]3[C@H]4CN(C(=O)c5ccc6c(c5)OCO6)CCCCN4[C@H]3CO)cc2)c1	0.5	-13.7	11.4	-4.8
O=C(C[C@@H]1C=C[C@@H](NC(=O)Nc2cc(F)ccc2F)[C@@H](CO)O1)NCCCN1CCOCC1	2.9	3.7	-0.5	-2.9
COCCNC(=O)C[C@@H]1C[C@@H]2c3cc(N(C)C)ccc3O[C@@H]2[C@H](CO)O1	2.1	-5.2	-2.5	-6.6
Cc1noc(C)c1NC(=O)N(C)C[C@H]1Oc2ncc(C#CC3CCCC3)cc2C(=O)N([C@H](C)CO)C[C@H]1C	-0.3	-3.6	-0.3	-2.7
CC(=O)N1CCCCN2[C@H](CO)[C@@H](c3ccc(-c4cccc(C(=O)N(C)C)c4)cc3)[C@H]2C1	2.4	20.8	2.5	3.6

Sorted by the number under AF4-AF9 inh (low to high): some entries from above.
SMILES	Ecoli rRNA inh	Ecoli rRNA inh OD600	Ecoli rRNA inh RFP	AF4-AF9 inh
Cc1ccc(S(=O)(=O)Nc2ccc3c(c2)CC(=O)N([C@H](C)CO)C[C@H](C)[C@H](CN(C)C(=O)Nc2ccc(C(F)(F)F)cc2)O3)cc1	1.7	0.4	1.9	-1.1
C[C@@H]1CN([C@H](C)CO)S(=O)(=O)c2ccc(C#CC3(O)CCCC3)cc2O[C@H]1CN(C)C(=O)c1ccccc1	-5.3	-21.2	-4.2	2.9
C[C@H](CO)N1C[C@H](C)[C@H](CN(C)Cc2ccc(-c3ccccc3)cc2)Oc2ncc(C#CCN(C)C)cc2C1=O	0.0	3.3	0.9	17.9

Screens from PubChem.
